Screens from PubChem.
VDR inhibitor: vitamin D3 receptor (human) inhibition; P11473; VDR-SRC2-3 peptide fluorescence polarization, 2 h; Potency, µM, inactives show max response, negative = inhibition, most hits filed as inhibitors; 400,000 tested, 0.93% active; AID 504847; active means well fitted inhibition curve with a large enough effect; inconclusive means small, poorly fitted or top-dose-only effect, or another doubt; inactive means no such curve, though single readings can be large or run the other way; further: series mostly up to about 120 µM
Target sequence (P11473 whole entry, looked up): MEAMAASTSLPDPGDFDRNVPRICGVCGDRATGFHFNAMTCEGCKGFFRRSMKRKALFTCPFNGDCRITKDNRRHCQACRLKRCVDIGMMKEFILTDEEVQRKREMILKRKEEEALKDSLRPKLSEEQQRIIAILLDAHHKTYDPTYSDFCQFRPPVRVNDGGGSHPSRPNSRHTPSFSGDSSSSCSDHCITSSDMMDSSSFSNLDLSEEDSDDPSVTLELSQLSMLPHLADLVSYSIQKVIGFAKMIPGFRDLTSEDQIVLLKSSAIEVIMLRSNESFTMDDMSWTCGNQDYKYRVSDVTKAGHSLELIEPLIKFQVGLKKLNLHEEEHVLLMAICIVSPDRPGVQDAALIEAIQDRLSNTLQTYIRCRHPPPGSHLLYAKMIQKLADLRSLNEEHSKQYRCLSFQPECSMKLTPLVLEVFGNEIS
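Fluorescence polarization assay measuring small-molecule disruption of VDR binding to the coregulator peptide SRC2-3. Compounds were pin-transferred (23 nl) into the reagent mix and incubated 2 h at room temperature before reading.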
* hit, by the source's call; ? = inconclusive; & = joins results of further samples. On the % scale 0 is the no-effect control and ±100 the full control effect; potency means the concentration at half of the fitted maximal effect. These rows are one share of the data; the hit share may differ from the screen's.

SMILES | VDR inhibitor
COc1ccccc1-c1c(C)nn2c(N3CCN(c4cccc(Cl)c4)CC3)cc(C)nc12 | 3.2%
O=C(COC(=O)/C=C/c1ccc([N+](=O)[O-])cc1)NCC1CCCCC1 | -1.7%
O=C(COC(=O)C1C2CC3OC(=O)C1C3C2)Nc1ccc(F)cc1 (stereo unspecified) | 10.6%
C=CCn1c(O)c(N=Nc2nc3ccccc3c(=O)n2-c2ccccc2)c2ccccc21 | -19.1%
N[C@@H](Cn1ccc(=O)n(Cc2ccccc2C(=O)O)c1=O)C(=O)O | -0.1%
CCCNC(=O)CN(c1ccc(F)c(Cl)c1)S(C)(=O)=O | 4.0%
COCCNC(=O)Cn1ccc2cc(S(=O)(=O)N3CCCCC3)ccc21 | -7.9%
COCCCNC(=O)COc1ccc2oc3c(c2c1)CCCC3 | 0.1%

Additional compounds follow:
SMILES | VDR inhibitor
COC(=O)[C@]1(C)N[C@H](CN(C)C(=O)Nc2ccc(F)cc2)[C@@H]2C(=O)N(C)C(=O)[C@@H]21 | 8.4%
COc1ccccc1NS(=O)(=O)c1cc(NC(=O)Nc2ccc(Cl)cc2Cl)ccc1N1CCCCC1 | -15.6%
CCCn1c(SCC(=O)NCCc2ccccc2)nnc1C(C)C | -14.5%
C=CCOc1c(Br)cc(CNc2ccc(NC(=O)C(C)C)c(OC)c2)cc1OC | -9.2%
COc1cccc(C(=O)c2cn(CC(=O)Nc3cccc(C(F)(F)F)c3)c3nc(C)ccc3c2=O)c1 | 5.6%
Cc1cccc(OCCSc2nncn2C)c1 | -11.8%
COc1ccc(N/N=C(/C#N)S(=O)(=O)C(C)(C)C)cc1 | 12.9%
O=S(=O)(c1ccc2c(c1)OCCO2)N1CCN(S(=O)(=O)c2ccccn2)CC1 | -13.2%

Remaining list, next part.
SMILES | VDR inhibitor
O=C(NCC1(c2ccccc2)CCCC1)C(=O)N1CCOCC1 | 23.9%
Cc1ccc(OCC(=O)NC2CCCCCC2)cc1C | 12.1%
O=C(Oc1ccc(N(Cc2cccs2)C2=NS(=O)(=O)c3ccccc32)cc1)c1ccccc1 | 9.7%
O=C(CCN1C(=O)/C(=C/c2ccc3c(c2)OCO3)SC1=S)Nc1ccccc1 | -3.9%
CCC(=O)Nc1ccc(C(=O)NNC(=O)c2cccc(C)c2)cc1 | -11.7%
CCOc1ccc(Cl)cc1CSc1n[nH]c(CC)n1 | -3.6%
O=C(CSc1ccccn1)Nc1nc2c(ccc3ccccc32)s1 | 2.0%
COc1cc(NC(=O)[C@@H](NC(=O)c2ccco2)C(C)C)c(OC)cc1NC(=O)c1ccccc1 | -7.8%

(continued)
SMILES | VDR inhibitor
CCN(CC)c1ccc(-n2c(C)c(C(C)=O)c(C(C)=O)c2C)cc1 | -0.5%
CCc1ccc(CNC(=O)c2cc3cc(S(=O)(=O)N4CCCCC4)ccc3n2C)cc1 | 10.6%
O=C1c2cnc3ncnn3c2CC2c3ccccc3CCN12 (stereo unspecified) | 2.9%
COc1cc(N2C(=O)CSC23C(=O)N(Cc2cccc(F)c2)c2ccccc23)cc(OC)c1OC (stereo unspecified) | 6.7%
CCOC(=O)C1=C(Cn2cnc3ccccc32)NC(=O)NC1c1ccc(OC)cc1 (stereo unspecified) | -11.2%
CN(NC1OC(=O)c2ccccc21)c1c([N+](=O)[O-])cc(C(F)(F)F)cc1[N+](=O)[O-] (stereo unspecified) | -7.7%
CCCC[C@@H]1CNC(=S)N1CCCc1cc(OC)c(OC)c(OC)c1 | 3.0%
O=C(NCCc1ccccc1)C(=O)NCC1OCCCN1S(=O)(=O)c1ccc(F)cc1 (stereo unspecified) | -16.0%

Following part:
SMILES | VDR inhibitor
CC(C)C[C@@H](CN)NC(=O)c1nc[nH]c1C(=O)N[C@@H](CC(C)C)C(=O)CNC[C@H](C)NC(=O)c1nc[nH]c1C(=O)N[C@@H](CC(=O)O)C(=O)O | 12.5%
Cc1nc2ccn(Cc3cccnc3)c(=O)c2cc1C(=O)Nc1ccc(OC(F)(F)F)cc1 | 16.9%
O=C(CN1C(=O)c2ccccc2S1(=O)=O)Nc1ncccn1 | -15.8%
COc1ccc(N/N=C(\C#N)C(=N)SCc2ccccc2)cc1 | ?
Cc1cccc(N=Nc2c(N)n[nH]c2N)c1 | 4.2%
O=C(CCCC(=O)c1ccc(F)cc1)c1ccc(F)cc1 | 4.1%
Cc1cc(C)c2c(-c3ccc(F)cc3)c(C#N)c(=O)n(C)c2n1 | -4.5%
O=C(c1cc(-c2ccc(Br)cc2)nc2ccccc12)N1CCC1 | -7.9%

A section from the list above, for reference:
SMILES | VDR inhibitor
O=C(CN1C(=O)c2ccccc2S1(=O)=O)Nc1ncccn1 | -15.8%
COc1ccc(N/N=C(\C#N)C(=N)SCc2ccccc2)cc1 | ?
Cc1cccc(N=Nc2c(N)n[nH]c2N)c1 | 4.2%
O=C(CCCC(=O)c1ccc(F)cc1)c1ccc(F)cc1 | 4.1%

Further structures:
SMILES | VDR inhibitor
CCOc1c(CNCc2ccc(C(=O)O)cc2)cccc1OC | 1.9%
CCCCN1CCCC[C@H]1C(=O)Nc1c(C)cccc1C | 3.6%&-0.8%
O=C(CSc1ccccn1)Nc1nc2ccccc2s1 | 2.7%
COC(=O)c1c(NC(=O)CSc2nc3ccccc3c(=O)n2Cc2ccco2)sc(C)c1C | -18.0%
CCOc1ccccc1NC(=S)NCc1cccn1C | 0.8%
CN1CCN(C(=O)C2=C[C@H](c3ccccc3)C[C@H](OCc3ccc(CO)cc3)O2)CC1 | -10.9%
Cc1cc(NC(=O)c2ccc(Cl)c(Cl)c2)ccc1-c1cc2ccccc2oc1=O | -10.3%
O=c1c(-c2ccc(O)cc2)coc2c(C3OC(CO)C(O)C(O)C3O)c(O)ccc12 (stereo unspecified) | 7.4%

Later entries
SMILES | VDR inhibitor
Cc1c(C(=O)OC(C)C)sc(NC(=O)c2cnccn2)c1C(=O)OC(C)C | -3.1%
CC(=NNC(=O)c1ccncc1)c1ccc2ccccc2c1O | -22.5%
CCOc1ccc(NC(=O)CSc2nnc(CNC(=O)c3ccco3)o2)cc1 | -12.7%
COc1ccc2ccccc2c1/C=N/O | -6.0%
COC(=O)c1ccc(C)c(NC(=O)C(CCSC)NC(=O)c2cc(OC)c(OC)c(OC)c2)c1 (stereo unspecified) | 6.8%
CN(C)C(=O)NC1CCCCCCCCCCC1 | 4.8%
COCCCn1c(SCC(=O)N2CCc3ccccc32)nnc1-c1ccco1 | -5.4%
CCOc1c(C)cc(-c2ncccc2O)cc1C | -6.9%&-16.1%

(further entries)
SMILES | VDR inhibitor
CCC(=O)c1ccccc1OCCCn1cncn1 | -12.2%
c1ccc(CCC2CCCCN2Cc2cn[nH]c2-c2cc3ccccc3o2)nc1 (stereo unspecified) | 3.0%
COC(=O)c1ccc(Oc2nc(NC(C)C)nc(SC)n2)cc1 | -9.6%
CC1(C)Cc2c(cnn2-c2ccc(F)cc2)C(NC(=O)C2=NNC(=O)CC2)C1 (stereo unspecified) | ?
O=C(c1cc(C(F)(F)F)cc(C(F)(F)F)c1)N1CCC2(CC1)CN(Cc1ccncc1)C2 | -0.1%
O=C(NCc1ccccc1Cl)C1CC(=O)N(Cc2ccccc2)C1 (stereo unspecified) | 12.5%
O=c1[nH]ncc(N/N=C\c2ccncc2)c1Cl | -12.8%
CCn1nc(C)cc1C(=O)N1CCCC(Nc2ccc(C(C)C)cc2)C1 (stereo unspecified) | -8.0%

Following part:
SMILES | VDR inhibitor
COc1ccc(CNc2nc3nc(C)c(Cl)c(=O)n3[nH]2)cc1 | -12.1%
COc1ccc(CCNC(=O)c2cnn(-c3cccc(C)c3)c2C2CCN(C(=O)OC(C)(C)C)CC2)cc1OC | 11.4%
CCCc1cc(=O)[nH]c(SCC(=O)Nc2ccc(Br)cc2)n1 | 0.7%
O=C(CSc1nnc2scc(-c3ccc(Cl)cc3)n12)NCc1ccc2c(c1)OCO2 | -6.2%
CCc1cccc(OCCCCNCCO)c1 | 0.4%
O=S(=O)(Nc1ccc(-n2cnnn2)cc1)c1cccc(F)c1 | 1.3%
CC(C)C(=O)Nc1nc2ccc(S(C)(=O)=O)cc2s1 | 6.0%
CNC(=O)CN1C(=O)CSc2nc(C)cc(C)c21 | -25.8%

Next section
SMILES | VDR inhibitor
COc1cccc(-c2nc(CS(=O)(=O)CC(=O)NC3CCCCC3C)c(C)o2)c1 (stereo unspecified) | 4.3%
NNC(=O)c1csc(-c2ccc(C(F)(F)F)cc2Cl)n1 | 5.8%
CCc1ccc(-n2c(SCc3c(C)noc3C)nnc2-c2ccncc2)cc1 | -11.0%
O=C(COC(=O)C1CCC1)Nc1cc(S(=O)(=O)N2CCCCC2)ccc1Cl | -11.5%
N#CCSc1nnc(COc2ccc3ccccc3c2)o1 | -7.8%
O=C(OCC(=O)N1CCCC1=O)c1cc(S(=O)(=O)N2CCOCC2)ccc1F | -25.6%
C/C(=N\S(=O)(=O)c1ccc(C)cc1)N1CCN(S(=O)(=O)c2ccccc2)C1 | -6.3%
COc1ccc(C(=O)N2CCCC(CNC(=O)c3ccc(F)cc3)C2)cc1OC (stereo unspecified) | 21.1%

New compounds follow
SMILES | VDR inhibitor
OCC1(Cc2cccc(Cl)c2)CCCN(Cc2sc(N3CCCC3)nc2Cl)C1 (stereo unspecified) | -15.6%
COc1ccc(-c2cc(C(F)(F)F)n3ncc(C(=O)N4CCCCC4c4cccnc4)c3n2)cc1 (stereo unspecified) | -7.7%
CS(=O)(=O)Nc1ccc(C(=O)Nc2cccc([N+](=O)[O-])c2)cc1 | -10.3%
COc1ccc(C(=O)CN2CCN(c3ccc(Cl)cc3)CC2)cc1OC | 2.5%
Cc1ccc(NC2(C#N)C(=O)Nc3ccccc32)cc1 (stereo unspecified) | -20.5%
Cc1ccc(S(=O)(=O)NCc2ccco2)cc1C(N)=O | ?
O=C(Cn1c(/C=C/c2ccccc2)nc2ccccc21)Nc1ccc(F)cc1 | ?
CC(C)c1nn2c(=O)cc(COC(=O)c3cccc(NC(=O)COc4ccc(F)cc4)c3)nc2s1 | 0.2%

The list goes on:
SMILES | VDR inhibitor
N#Cc1ccc(C(=O)NNC(=O)c2cccc(S(=O)(=O)N3CCOCC3)c2)cc1 | -10.8%
Cc1ccc(S(=O)(=O)NCC2CCCO2)cc1 (stereo unspecified) | 0.4%
CCC1(c2ccccc2)NC(=O)N(CC(=O)Nc2cccc(S(=O)(=O)N3CCCCC3)c2)C1=O (stereo unspecified) | -8.5%
COCCNC(=O)c1c(C)oc2nc(C)nc(N3CCOCC3)c12 | -7.8%
Cc1[nH]c2ccc(C(=O)N3CCN(C)CC3)cc2c1C | -4.4%
NC(=O)[C@H]1CC2(CC(c3cccc(NC(=O)CC(c4ccccc4)c4ccccc4)c3)=NO2)CN1C(=O)c1ccccc1C(=O)c1ccccc1 (stereo partly specified) | -17.1%
COc1ccc(NC(=S)Nc2cccnc2)c(OC)c1 | -19.1%
Cc1cc(=O)n2[nH]c(-c3ccc(Cl)cc3)cc2n1 | 24.5%

Next part:
SMILES | VDR inhibitor
Cc1ncc([N+](=O)[O-])n1CCN1C(=O)c2ccccc2C1=O | -11.9%
CN(C)S(=O)(=O)c1ccc2c(c1)/C(=C/c1cc3c([nH]1)CCCC3)C(=O)N2 | -18.7%&-15.0%
CCOC(=O)c1noc2ncn(CC(=O)Nc3ccc(F)cc3Cl)c(=O)c12 | 11.3%
Cc1cc(C(=O)N/N=C(\CCC(=O)O)c2cccs2)c2ccccc2n1 | -3.4%
COc1cc(Cl)c(C)cc1NC(=O)COC(=O)c1cc(SC)ccc1Cl | 0.1%
CCCn1c(-c2ccccc2)cc(SC)c(C#N)c1=O | 8.2%
Cn1ncc(Cl)c1C(=O)NCc1ccc(Cl)cc1 | -15.3%
Cc1c(CCOC(=O)c2cc([N+](=O)[O-])cc([N+](=O)[O-])c2)sc[n+]1CC(=O)c1ccccc1 | -14.8%

Remaining list, next part
SMILES | VDR inhibitor
Cc1nn(CC(=O)Nc2c(F)cc(F)cc2Br)c(=O)c2cccn12 | 1.8%
COC1CCN(Cc2cn(Cc3ccccc3)nc2-c2cc3ccccc3o2)CC1 | -13.1%
CC(C)c1ccc(NC(=O)C2CCCCN2S(=O)(=O)c2ccccc2)cc1 (stereo unspecified) | -6.4%
COc1ccc(Cc2nc3ccc(C(=O)NCc4ccccc4Cl)cc3o2)cc1 | 6.0%
CN(Cc1nc2ccc(F)cc2[nH]1)C(=O)C1CCC(=O)N(C2CC2)C1 (stereo unspecified) | -12.4%
COc1ccc2oc(C(=O)OC(C)C(=O)NCc3ccccc3)c(C)c2c1 (stereo unspecified) | 4.0%
CC(NC(=O)c1cccnc1)C(c1cccs1)N1CCOCC1 (stereo unspecified) | -2.4%
Cc1cc(C)c2[nH]c(=O)c(C(c3nnnn3C(C)(C)C)N(Cc3ccco3)CC3CCCO3)cc2c1 (stereo unspecified) | 9.2%

Next records
SMILES | VDR inhibitor
O=C(Nc1ncc([N+](=O)[O-])s1)C1CC(=O)N(c2ccc(F)cc2)C1 (stereo unspecified) | -10.2%
Cc1nonc1OCCNc1ccc([N+](=O)[O-])cc1 | -8.0%
CC(=O)N1CCN(c2ccc(NCc3ccc(-c4ccc(Br)cc4)o3)cc2)CC1 | 79.4µM*
CS(=O)(=O)N(CC(=O)N1CCCC1)c1cc(Cl)ccc1Cl | -27.8%
CCOC(=O)Cc1c(C)c2ccc(N(CC)CC)cc2oc1=O | -1.4%

3 entries already listed, sorted by the number in VDR inhibitor, lowest first.
SMILES | VDR inhibitor
CS(=O)(=O)N(CC(=O)N1CCCC1)c1cc(Cl)ccc1Cl | -27.8%
O=C(Nc1ncc([N+](=O)[O-])s1)C1CC(=O)N(c2ccc(F)cc2)C1 (stereo unspecified) | -10.2%
CCOC(=O)Cc1c(C)c2ccc(N(CC)CC)cc2oc1=O | -1.4%
